Screening data deposited in PubChem BioAssay by National Center for Advancing Translational Sciences (NCATS).
StopGo reporter: FMDV 2A StopGo reporter, luciferase signal; Potency, µM (series often up to 57.9 µM), without a hit: at the highest dose signal change, negative = less light; AID 1159524; 410,000 tested, 1.2% active; human cells with a luciferase reporter of 2A StopGo recoding; control for the full effect not named in the record; active = well fitted falling curve with a large enough effect; inconclusive = small, poorly fitted or top-dose-only effect; inactive = no such curve, though single readings can be large or run the other way; tested in HEK293T cells; further: nearly all actives have a fitted effect of over 45% in size; luciferase light after 4 h
RE007 growth inh: less growth of the S. pombe RE007 Vpr strain; S. pombe RE007 Vpr strain, BacTiter-Glo ATP luminescence, 24 h; control for the full effect not named in the record; AID 651644; 360,000 tested, 0.21% active; Potency, µM (series often up to 92.2 µM), without a hit: at the highest dose activity change, negative = less growth; active = well fitted falling curve with a large enough effect; inconclusive = small, poorly fitted or top-dose-only effect; inactive = no such curve, though single readings can be large or run the other way;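 further: nearly all actives have a fitted effect of over 50% in size; the assay follows cell death caused by Vpr and the record does not say whether a fall means rescue or toxicity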
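Fission yeast RE007 carrying one integrated HIV-1 vpr copy, seeded at OD 0.01 in PMG+AL medium with 23 nL pinned compound. Grown 24 h at 30 degrees; viability read by BacTiter-Glo luminescence after 5 min.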
An asterisk follows results filed as active; ? = inconclusive; [ ] = remark or other dose. On the % scale 0 is the no-effect control and ±100 the full control effect; potency means the concentration at half of the fitted maximal effect. A portion of the library (hit frequency here may not be typical).

Second line of a record – StopGo reporter, RE007 growth inh
COc1ccc(-c2oc3c(c2C(=O)OCCCO)C(OCCCCCO)CCC3)cc1 (stereo not drawn)
  -22%, -4%
C/C(=N\NC(=O)C1CCCC1)c1ccc(NC(=O)C(F)(F)F)cc1
  -24%, -7%
O=C(CN1CCN(C(=O)CNC(=O)c2ccc(-c3ccccc3)cc2)CC1)Nc1ccccc1Cl
  28µM*, -10%
CCOc1ccc(NC(=O)c2cccc(S(=O)(=O)Nc3c(C)n(C)n(-c4ccccc4)c3=O)c2)cc1
  -7%, 6%
CC(C)C[C@H]1CNC(=O)C(=O)N1C[C@@H]1CCCN1C[C@H](Cc1ccccc1)N1C[C@H](CC(C)C)N(CC2CCCCCC2)C(=O)C1=O
  1%, 7%
Cc1ccc(NCCCn2cnc(C(=O)Nc3ccc(C)c(C)c3)n2)cc1C
  0%, -13%
COc1cccc(C(C)=NNc2ccc([N+](=O)[O-])cc2[N+](=O)[O-])c1OC
  0%, 0%
CC1=C(C(=O)N2CCCCCC2)CC(CC(=O)NCCCCc2ccccc2)C(=O)N1CCC1=CCCCC1 (stereo not drawn)
  -13%, 9%
Cc1ccc(NC(=O)c2cc(-c3cc(F)ccc3OCC3CCCO3)n[nH]2)cc1NS(C)(=O)=O (stereo not drawn)
  -20%, 12%
CCC(=O)N[C@@H]1CC[C@@H](CCNC(=O)Nc2ccc(F)cc2)O[C@@H]1CO
  -11%, 4%
Cc1ccc(F)c(S(=O)(=O)NC(=O)C2(C)CCN2C(=O)C2(c3ccc(Cl)cc3)CCC2)c1 (stereo not drawn)
  ?, 3%
CSc1ccc(CNC(=O)C2(C)CCCN(C(C)=O)C2)cc1 (stereo not drawn)
  -13%, 10%
Cc1ccccc1CN1[C@@H](C(C)C)COCCS1(=O)=O
  -6%, -6%
CC1=C(C(=O)N2CCCCCC2)CC(CC(=O)NCCc2ccccn2)C(=O)N1Cc1ccc(F)cc1 (stereo not drawn)
  0%, -26%
NC(=O)C1CC(=O)N(c2ccc(OCc3ccc(Cl)c(Cl)c3)cc2)C1 (stereo not drawn)
  32%[activator], -21%
CCOC(=O)C1=CCN(S(=O)(=O)c2ccccc2F)C1c1ccc(Cl)cc1 (stereo not drawn)
  ?, 7%
COc1nc(=O)n(C2C=CC(=O)O2)cc1F (stereo not drawn)
  ?, -18%
CN(C(=O)c1cccc(NC(=O)Cc2ccc(NC(=O)C3CCN(C(=O)C4CCCCC4)CC3)cc2)c1)C1CC1
  5%, 5%
OC(c1ccc(Cl)c(F)c1)c1ncc(-c2ccccc2Cl)[nH]1 (stereo not drawn)
  76%[activator], -17%
O=C1NCN(c2ccccc2)C12CCN(C(c1nnnn1-c1ccc3c(c1)OCCO3)C1CC1)CC2 (stereo not drawn)
  -14%, 1%

Three entries already listed, arranged by heavy-atom count, largest number first.
Second line of a record – StopGo reporter, RE007 growth inh
CC1=C(C(=O)N2CCCCCC2)CC(CC(=O)NCCCCc2ccccc2)C(=O)N1CCC1=CCCCC1 (stereo not drawn)
  -13%, 9%
CCOc1ccc(NC(=O)c2cccc(S(=O)(=O)Nc3c(C)n(C)n(-c4ccccc4)c3=O)c2)cc1
  -7%, 6%
C/C(=N\NC(=O)C1CCCC1)c1ccc(NC(=O)C(F)(F)F)cc1
  -24%, -7%

(further entries)
Second line of a record – StopGo reporter, RE007 growth inh
FC(F)C(F)(F)Oc1cccc(Nc2nccn3c(-c4cccc5ccccc45)cnc23)c1
  0%, 6%
Clc1cccc(-c2cccc3nccn23)c1Cl
  -27%, 16%
COc1ccc(CC(N)c2csc(Nc3ncccn3)n2)cc1 (stereo not drawn)
  -22%, -3%
C#Cc1ccc([C@@H]2C=C(C(=O)NC3CC3)O[C@H](OCc3ccc(CO)cc3)C2)cc1
  26%, 75%
CCOC(=O)C1(C)CCCCCN1C(=O)c1ccc(OC)c(C(F)(F)F)c1 (stereo not drawn)
  -12%, 2%[18.4 µM]
COc1cc(CNc2ncnc3c2ncn3[C@H]2CN(Cc3ccc(C(=O)O)cc3)C[C@@H](CO)O2)cc(OC)c1OC
  -16%, -6%[18.4 µM]
COc1ccc(C2=NOC(C)(c3nnc(-c4ccc(Cl)cc4)o3)C2)cc1 (stereo not drawn)
  5%, 7%
c1ccc2c(c1)COc1c3ncccc3nn1-2
  56%[activator], -9%
C[C@@H]1CN([C@@H](C)CO)C(=O)CCCn2cc(nn2)CO[C@H]1CN(C)C(=O)c1cc(-c2ccccc2)on1
  -12%, -10%
O=C(COC(=O)c1ccc(F)cc1F)Nc1ccc(S(=O)(=O)N2CCOCC2)cc1
  -18%, 2%
CC(Sc1nnc2n1CCCCC2)C(=O)Nc1ccccc1[N+](=O)[O-] (stereo not drawn)
  -11%, -11%
COc1cccc(-c2ccc3c(c2)O[C@@H](CN(C)C(=O)C2CCOCC2)[C@H](C)CN([C@H](C)CO)S3(=O)=O)c1
  5%, 19%
Cc1cccc(C)c1Cn1c(C)c(C(=O)NCc2ccccc2C(F)(F)F)sc1=O
  -19%, 0%[18.4 µM]
C[C@H]1C(=O)N(C)CCN1C(=O)c1ccc(OC2CCN(CCc3ccccc3)CC2)cc1
  -12%, -13%
CC(=O)N1CCN(C(c2ccccc2)c2nnnn2C(C)(C)C)CC1 (stereo not drawn)
  -15%, 6%
CCC(c1nnnn1-c1ccc2c(c1)OCCO2)N1CCN(C(C)=O)CC1 (stereo not drawn)
  -11%, -4%
CNC(=O)C[C@@H]1CC[C@@H]2[C@H](COC[C@H](O)CN2S(=O)(=O)c2ccccc2Cl)O1
  -19%, -18%
COc1ccc(C(=O)c2[nH]c(N)c(C(=O)NCCc3c[nH]c4ccccc34)c2-c2c(F)cccc2Cl)cc1
  ?, 15%
CN1OC[C@@H]2CN[C@H](c3cccc(N4CCOCC4)c3)C[C@@H]21
  7%, 6%
CC1=C(C(=O)N2CCOCC2)CC(CC(=O)NCC2CCCCC2)C(=O)N1CCC1=CCCCC1 (stereo not drawn)
  17%, -2%

Another view of 2 compounds above.
Molecule | StopGo reporter | RE007 growth inh
CC(Sc1nnc2n1CCCCC2)C(=O)Nc1ccccc1[N+](=O)[O-] (stereo not drawn) | -11% | -11%
COc1cccc(-c2ccc3c(c2)O[C@@H](CN(C)C(=O)C2CCOCC2)[C@H](C)CN([C@H](C)CO)S3(=O)=O)c1 | 5% | 19%

Returning to the listing, repeating the two entries before the break.
Second line of a record – StopGo reporter, RE007 growth inh
CN1OC[C@@H]2CN[C@H](c3cccc(N4CCOCC4)c3)C[C@@H]21
  7%, 6%
CC1=C(C(=O)N2CCOCC2)CC(CC(=O)NCC2CCCCC2)C(=O)N1CCC1=CCCCC1 (stereo not drawn)
  17%, -2%
O=S1(=O)CC(N2CCSCC2)CN1Cc1cn(Cc2ccccc2)nn1 (stereo not drawn)
  -8%, 1%
C[C@H](CO)N1C[C@H](C)[C@@H](CN(C)Cc2ccccc2)OCCCC[C@H](C)Oc2ccc(N(C)C)cc2C1=O
  -6%, -9%
COC(=O)[C@@]12C[C@@H](CC(=O)N3CCCC3)C(=O)N(CCc3ccc(OC)c(OC)c3)C1=CCC(C)(C)C2
  -9%, 0%
FC(F)(F)C(F)(F)c1nc2nc(Cl)c(Cl)nc2[nH]1
  -5%, 4%
CCCn1cnnc1CNC(=O)[C@H]1O[C@@H](n2cnc3c(N)ncnc32)[C@H](O)[C@@H]1O
  -16%, 4%
CC1(C(=O)NS(=O)(=O)c2ccc(Br)cc2)CCN1C(=O)c1cccc(F)c1 (stereo not drawn)
  -3%, 9%[18.4 µM]
CCc1nc2c(OCc3ccc(Cl)cc3Cl)cccn2c1N(C)C(=O)CC(C)C
  ?, -7%[18.4 µM]
CC1(C(=O)NS(=O)(=O)c2ccc3c(c2)CCO3)CCN1C(=O)C1(c2ccc(Cl)cc2)CCC1 (stereo not drawn)
  18%, 3%[18.4 µM]
COc1cc(Nc2ncc3c(n2)CCN(C(=O)Nc2ccc(C(C)C)cc2)C3)cc(OC)c1OC
  -19%, -19%[18.4 µM]
CCN1C(=O)[C@H]2[C@@H](c3ccc(OC)cc3)N[C@]3(CCCN(CC4CCCCC4)C3=O)[C@H]2C1=O
  -16%, 0%
OC(c1ccc(Cl)c(Cl)c1)c1ncc(-c2ccccc2F)[nH]1 (stereo not drawn)
  63%[activator], -26%
CCCS(=O)(=O)NC(=O)C1(C)CCCN(C(=O)c2cc(C(C)(C)C)nn2C)C1 (stereo not drawn)
  -2%, 2%
CCCCCC(=O)N1C[C@H](n2cc(C3CC3)nn2)[C@@H](O)C[C@@H]1c1ccc(Cl)cc1
  -14%, 8%
O=C(NCc1ccccc1)[C@]1(C(F)(F)F)C[C@H](CCc2ccccc2)CCCO1
  -2%, 6%
C[C@@H]1CCCCO[C@@H](CN(C)Cc2ccc(Cl)c(Cl)c2)[C@@H](C)CN([C@H](C)CO)C(=O)c2cc(NC(=O)Nc3ccccc3)ccc2O1
  -2%, 4%
COC(=O)C[C@H]1C[C@@H]2c3cc(NC(=O)CN(C)C)ccc3O[C@@H]2[C@H](CO)O1
  -23%, 0%
COc1nnc(-c2ccc(N3CCCCC3)c(NC(=O)COc3ccccc3)c2)c2ccccc12
  -14%, 4%
CC1=C(C(=O)N(C)C)CC(CC(=O)NCCc2ccccn2)C(=O)N1CCC1=CCCCC1 (stereo not drawn)
  -7%, 10%
CS(=O)(=O)c1ccc(Cl)c(NC(=O)c2ccc(-n3cncn3)c([N+](=O)[O-])c2)c1
  -20%, 15%
CCOC(=O)C1Nc2ccccc2C2C(O)C(O)CC12 (stereo not drawn)
  -21%, -9%
CC1(C(=O)NS(=O)(=O)Cc2cccc(Cl)c2)CCN1C(=O)c1cccc(F)c1 (stereo not drawn)
  -4%, -15%
O=S(c1cc(Cl)cc(Cl)c1O)c1cc(Cl)cc(Cl)c1O
  ?, 3%
CC1NC(=O)c2cccnc2-n2c1nc1cc(F)c(F)cc1c2=O (stereo not drawn)
  -11%, 7%
CCc1nc2ccc(C(=O)NCCNC(C)=O)cn2c1N(CC)CCOC
  -12%, 4%
COc1cccc(COC(=O)C(Cc2ccccc2)NC(=O)c2ccco2)c1 (stereo not drawn)
  -7%, 2%
Cc1ccc2nc(-c3ccc(Cl)cc3)c(CC3CCCCC3)n2c1
  20%, -22%
CCOC(=O)C1=C(c2ccccc2)N=c2sc(=Cc3cc(OC)c(OC)c(OC)c3)c(=O)n2C1c1cccs1 (stereo not drawn)
  -24%, 9%
O=C(/C=C/c1ccc(F)cc1)N1CCN(Cc2ccccc2)CC1
  33%[activator], 1%
CC(=O)C1CCC2C3CC(O)C4CC(O)CCC4(C)C3CCC12C (stereo not drawn)
  -24%, -6%
Cc1ccc(S(=O)(=O)N(C)C[C@@H]2OCc3cn(nn3)CCCC(=O)N([C@H](C)CO)C[C@H]2C)cc1
  -10%, -5%
O=C(c1ccc(-c2ccccc2)cc1)N1CCN(c2ccc3c(c2)C2CC3CCN2C(=O)OCc2ccccc2)CC1 (stereo not drawn)
  -6%, -8%
COc1ccc(-c2nc3c(C)cc(Br)cn3c2Cc2ccc(C)cc2)cc1OC
  0%, ?
CN(Cc1ccccc1)C(=O)C(=O)c1ccccc1
  33%[activator], 13%
COc1ccc(C(=O)N2CCCC2(C)C(=O)NCC(C)C)cc1C(F)(F)F (stereo not drawn)
  -25%, -8%[18.4 µM]
O=C(Nc1ccc2c(c1)OCO2)c1cc(C2CCCCN2S(=O)(=O)c2ccccc2)on1 (stereo not drawn)
  -7%, 0%
CCCCCC(=O)N1C[C@@H](n2cc(C3CC3)nn2)[C@H](O)C[C@@H]1c1ccc(OC)cc1
  1%, 23%
